High-throughput results deposited in PubChem by Johns Hopkins Ion Channel Center.
KCNQ2 block = KCNQ2 channel blockers in CHO-K1 cells – cell-based, FluxOR thallium flux, B-score, primary screen (AID 2156); O88943; 20 min; active compounds read low; only compounds with negative scores are shown here; some inactives read as strong as hits; B-score at 10 µM; actives 1.1% (n = 310,000);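 active = fluorescence ratio B-score at most minus 3 library SDs, with starting brightness B-score within 2 library SDs, cut at about -5.5 in these data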
Target sequence (O88943 whole entry, looked up): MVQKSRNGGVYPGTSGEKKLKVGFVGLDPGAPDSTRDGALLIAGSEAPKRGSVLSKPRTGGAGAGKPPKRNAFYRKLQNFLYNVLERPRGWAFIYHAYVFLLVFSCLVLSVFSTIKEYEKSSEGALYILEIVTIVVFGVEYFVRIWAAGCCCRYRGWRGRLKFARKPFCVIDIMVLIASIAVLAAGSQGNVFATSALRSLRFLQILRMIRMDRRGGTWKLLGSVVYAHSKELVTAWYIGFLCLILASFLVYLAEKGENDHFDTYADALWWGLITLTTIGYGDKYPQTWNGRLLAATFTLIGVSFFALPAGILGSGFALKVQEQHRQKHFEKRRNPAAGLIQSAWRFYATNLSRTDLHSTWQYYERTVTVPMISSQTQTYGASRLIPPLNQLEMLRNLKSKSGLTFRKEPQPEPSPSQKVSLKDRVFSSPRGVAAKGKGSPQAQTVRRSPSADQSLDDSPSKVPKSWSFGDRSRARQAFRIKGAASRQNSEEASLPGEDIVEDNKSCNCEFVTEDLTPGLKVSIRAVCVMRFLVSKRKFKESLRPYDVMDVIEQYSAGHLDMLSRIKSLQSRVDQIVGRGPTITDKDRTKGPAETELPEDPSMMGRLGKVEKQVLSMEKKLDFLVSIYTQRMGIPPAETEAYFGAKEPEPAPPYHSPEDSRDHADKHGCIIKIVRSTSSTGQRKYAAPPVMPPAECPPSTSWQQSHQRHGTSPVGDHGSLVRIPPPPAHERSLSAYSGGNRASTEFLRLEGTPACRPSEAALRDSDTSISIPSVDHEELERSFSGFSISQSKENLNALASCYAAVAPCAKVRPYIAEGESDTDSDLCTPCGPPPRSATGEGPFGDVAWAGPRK
KCNQ2 block baseline = also measured in KCNQ2 block; calls as there; B-score; measured here: initial fluorescence intensity artifact check;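 brightness before thallium and not channel activity; 0 = typical well and far values either way flag optical interference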
Starred values were filed as active, the others as inactive; i = inactive. Not all compounds are listed; count on the stated rates, not on these rows.

mol,KCNQ2 block,KCNQ2 block baseline
O=C(c1cccc(S(=O)(=O)N2CCCC2)c1)c1nnc(-c2ccncc2)o1,i,0.13
Cc1cccc2cc(CN(Cc3ccccc3)C(=O)c3cccc(F)c3)c(Cl)nc12,i,-0.4
COc1ccc(/C=N/OCC(=O)N2CCCC2)c(OC)c1,i,-0.03
Cc1ccc([N+](=O)[O-])c(OCCN2C(=O)NC(C)(C)C2=O)c1,i,0.6
CC(C)(C)OC(=O)[C@H](Cc1ccccc1)NC(=O)c1nc[nH]c1C(=O)N1CCN(C(=O)OC(C)(C)C)CC1,i,-1.2
Cc1c(NC(=O)c2ccc(Cl)s2)c(=O)n(-c2ccccc2)n1C,i,1.9
Cc1ccc(S(=O)(=O)N(C)C)cc1NC(=O)CCNC(=O)c1ccco1,i,0.04
CCC(=O)N1CCN(c2cc(C)ccc2C)CC1,i,0.01
O=C(Cn1ccnc1[N+](=O)[O-])NCc1ccccc1,i,0.28
O=c1c2ccccc2ncn1-c1ccc(Br)cc1[N+](=O)[O-],i,-0.46
CCOC(=O)c1c(NC(=O)CSc2nnc3c(Cl)cc(Cl)cn23)sc2c1CCC2,i,0.89
S=C(Nc1ccc(Br)cc1)Nc1ccc2c(c1)OCCO2,i,-1
O=c1c2nccnc2[nH]c(=S)n1Cc1ccccc1Cl,i,0.23
Cc1nc2cc(C(F)(F)F)ccc2n1C,i,0.98
O=c1c2ccccc2nnn1CSc1nc2cc(Cl)ccc2c(=O)n1Cc1ccco1,i,-0.5
NC(N)=Nc1nc(-c2ccccc2)c2cc(Cl)ccc2n1,i,-2.1
O=C(CSc1nnc(-c2ccco2)n1Cc1ccccc1)NCc1ccccc1,i,0.96
NC(=O)c1cc2ccc(O)cc2oc1=Nc1ccccc1,i,1.1
O=C(N/N=C/c1c(O)ccc2ccccc12)c1ccc[n+](CCO)c1,i,-4.6
O=C1CC(c2ccccc2)CC(O)=C1C=NCc1ccc(Cl)cc1 (configuration not stated),i,-0.01
O=C(Nc1ccccc1F)c1ccc(S(=O)(=O)NCC2CCCO2)cc1 (configuration not stated),i,0.32
CCC1CN(C(=O)N2CCC(C(=O)NCc3ccc(C)o3)CC2)c2ccccc2O1 (configuration not stated),i,-0.82
COc1ccc(/C=C(\C#N)C(=O)NCc2cccnc2)cc1OC,i,1.1
COc1ccc(NC(=O)COC(=O)C2CCCCC2)c([N+](=O)[O-])c1,i,-0.37
O=C(NCCc1c[nH]c2ccccc12)c1ccc(Cl)cc1,i,3.6
CC(C)N1C(=O)/C(=C\c2nc3ccccc3c(=O)n2-c2ccccc2)c2ccccc21,i,-0.01
COc1ccc(/C=N\NC(=O)c2cccc(F)c2)cc1COc1ccccc1,i,-2.1
O=C(CCc1c[nH]c2ccccc12)NCCc1ccc(Cl)cc1,i,-4.8
O=C(COc1ncnc2scc(-c3ccc(Cl)cc3)c12)NCc1ccco1,i,-2.1
CC1CCN(C(=O)Cn2c(=O)c3cccn3c3ccccc32)CC1,i,-0.13
Cc1nc2ncnn2c(C)c1CCC(=O)N1CCCCC1,i,1.4
CN(c1ccccc1)S(=O)(=O)c1ccc(NC(=S)NC(=O)c2ccccc2)cc1,i,0.11
COc1cccc(-c2nc(N)nc(SC)c2C#N)c1,i,2
COc1ccc(OC)c2c1sc(=NC(=O)c1cccc(N3C(=O)CCC3=O)c1)n2C,i,0.47
COc1ccccc1N(CC(=O)NCC1CCCO1)C(=O)Cn1nnc(-c2cccs2)n1 (configuration not stated),i,1.7
CCOC(=O)c1sc(NC(=O)c2cc(S(=O)(=O)N3CCOCC3)ccc2C)nc1C,i,-0.34
Cc1cc(=O)nc2c3ccccc3n(CC(=O)NC(C)c3ccc4c(c3)OCCO4)n12 (configuration not stated),i,-0.62
CCC(C)Nc1c2c(nc3c(-c4ccccc4)c(C)nn13)CCC2 (configuration not stated),i,0.01
Cc1ccc(NC(=O)CSCC(=O)N2CCOCC2)cc1,i,-1.8
Cc1cc(C)n2nc(C(=O)OCC(=O)NNC(=O)c3ccc(Cl)cc3)nc2n1,i,0.76
Cc1ccc(S(=O)(=O)CCC(=O)NCc2ccccc2Cl)cc1,i,-1.6
COCCCn1c(SCC(=O)N2CCc3ccccc32)nnc1-c1ccoc1C,i,0.86
COC(=O)c1ccc(C23CC4(C2)[C@H](CN(Cc2ccc(C(F)(F)F)cc2)[C@@H]4c2ccccc2)C3c2ccc(Cl)nc2)cc1 (some centres not stated),i,-0.09
COc1ccccc1NC(=O)c1ccccc1C(=O)Nc1ccccc1OC,i,0.53
Cc1ccccc1NC(=O)NC1CCS(=O)(=O)C1 (configuration not stated),i,-0.24
CCOc1ccc(NC(=O)c2ccc(NC(=O)C3CCCO3)cc2)cc1 (configuration not stated),i,-1.6
O=C(COc1ccc(S(=O)(=O)N2CCCC2)cc1)N1CCN(c2ccccc2F)CC1,i,-0.06
COc1ccc(/C=N/NC(=O)c2cccc(NC(=O)c3ccc(F)cc3)c2)c(C(=O)O)c1OC,i,0.85
Cc1ccc(CNC(=O)c2ccc(N3CCC4(CC3)CC(c3cccc(Br)c3)=NO4)c(NC(=O)c3ccco3)c2)cc1,i,0.36
COc1ccc(CN(C)C(=O)c2[nH]c(C)c(C(C)=O)c2C)c(OC)c1OC,i,-0.46

New compounds follow
mol,KCNQ2 block,KCNQ2 block baseline
CC(C)NC(=O)C1CCN(C(=O)C(C(=O)c2ccccc2)n2cc(Cl)ccc2=O)CC1 (configuration not stated),i,-1.8
CN1CCN(C(=O)C2CCC(CNS(=O)(=O)c3cccc4cccnc34)CC2)CC1 (configuration not stated),i,-0.95
C#CCNc1nc(C)nc2c1nnn2Cc1ccccc1F,i,1.4
CSc1nc2ccccc2n1Cc1c(Cl)cccc1Cl,i,-0.76
Cc1ccc(S(=O)(=O)/C(C#N)=C/c2c(N3CCN(C)CC3)nc3ccccn3c2=O)cc1,i,2.2
CCCN(CCC)S(=O)(=O)c1ccc(Cl)c([N+](=O)[O-])c1,i,-0.36
CC1CCCCN1C(=O)c1cc2c(=O)n3ccccc3nc2s1 (configuration not stated),i,-1.6
Cc1c(NC(=O)CSC(=S)N2CCCC2)c(=O)n(-c2ccccc2)n1C,i,1.6
CCOC(=O)c1sc(NC(=O)CN(CC)CC)c(C(=O)OCC)c1C,i,-0.6
O=C(CCl)N(c1ccc(Cl)cc1)c1c[nH]c2ccccc12,i,-0.38
FC(F)(F)c1cnc(Sc2nnc(-c3cccs3)n2CC2CCCO2)c(Cl)c1 (configuration not stated),i,-0.17
Cn1cc(Cl)c(-c2n[nH]c(=S)n2-c2ccc(F)cc2)n1,i,-1.6
O=C(N/N=C/c1sc(=O)[nH]c1-[n+]1ccccc1)c1ccccc1[O-],i,0.43
O=C(NCCN1CCN(Cc2ccccc2Cl)CC1)Nc1ccccc1,i,1.6
Cc1ccc(C(=O)NN=C2CCCCCC2)s1,i,0.87
CCOC(=O)C1=NN(C(C)=O)C2C(=O)N(CC)C(=O)C12 (configuration not stated),i,2.3
COc1ccc(N2CCN(c3nc(NCCO)nc(N4CCOCC4)n3)CC2)cc1,i,-1.1
C=CCN1C(=O)/C(=C/c2ccc(N(C)C)cc2)S/C1=N\c1nnc(CC)s1,i,0.31
CCOC(=O)CCCc1sc(N)nc1-c1[nH]c(=O)[nH]c1C,i,-0.08
CCOC(=O)c1ccc(-n2cc(C(=O)c3cccnc3)nn2)cc1,i,-0.13

Full records from above.
`O=C(N/N=C/c1sc(=O)[nH]c1-[n+]1ccccc1)c1ccccc1[O-]` in the list: KCNQ2 block: i; KCNQ2 block baseline: 0.43
`FC(F)(F)c1cnc(Sc2nnc(-c3cccs3)n2CC2CCCO2)c(Cl)c1` (configuration not stated) in the list: KCNQ2 block: i; KCNQ2 block baseline: -0.17
`CCOC(=O)CCCc1sc(N)nc1-c1[nH]c(=O)[nH]c1C` in the list: KCNQ2 block: i; KCNQ2 block baseline: -0.08

(further entries)
mol,KCNQ2 block,KCNQ2 block baseline
CCC1(CC)C(=O)C2=C3C1[C@H](C(=O)OC)C=C(C(=O)OC)C[C@H]3[C@H]1C(=O)N(Cc3ccccc3)C(=O)[C@H]1[C@H]2C (some centres not stated),i,-0.03
COc1cccc(CC2(CO)CCCN(Cc3ccccc3Cl)C2)c1 (configuration not stated),i,-0.38
Cc1cc(Nc2ccccc2)n(-c2ccc(Br)cc2)n1,i,1.1
COc1cccc(NC(=S)N2CCCC2c2ccc(OC)c(OC)c2)c1 (configuration not stated),i,-0.18
Cc1ccc(C(C(=O)NCCc2ccccc2)N(C(=O)c2csnn2)C2CC2)o1 (configuration not stated),i,-1.3
Clc1ccc(-c2cn(-c3ccc(Cl)cc3)c3[n+]2CCCCC3)cc1,i,-0.11
CCOC(=O)Cc1csc(NC(=O)NC2(C(F)(F)F)Oc3ccc(Cl)cc3O2)n1 (configuration not stated),i,-0.61
COC(=O)c1ccc(CSc2nnc(-c3ccc4c(c3)OCO4)n2-c2ccccc2)o1,i,2.2
O=[N+]([O-])CC(=Nc1ccc(Cl)cc1)N/N=C\c1oc(O)c2ccccc12,i,3.1
CCC1Oc2ccc(C)cc2N(CC(=O)N(Cc2ccc(C)o2)C2CC(C)(C)NC(C)(C)C2)C1=O (configuration not stated),i,0.54
Cc1csc2nc(CNS(=O)(=O)c3cccnc3)cn12,i,0.37
COc1ccc(-n2c(SCC#N)nc3ccccc3c2=O)cc1,i,-0.89
CCOc1ccc(N2C(=O)CC(N3CCN(c4ccc([N+](=O)[O-])cc4)CC3)C2=O)cc1 (configuration not stated),i,0.46
Cc1ccc(C)c(-n2ccnc2SCC(N)=O)c1,i,-0.59
O=[N+]([O-])c1ccc(N2CCOCC2)nc1,i,-0.03
COCOc1ccc(C=O)c(OCOC)c1,i,1.4
Cc1cc(NC(=O)CSc2nc3ccccc3n2CC(=O)N2CCC(C)CC2)no1,i,1.1
Cn1c(-n2c(-c3ccco3)nc3ccccc3c2=O)nc2ccccc21,i,1.9
CCN1CCN(CC(=O)Nc2ccc(Cl)c(Cl)c2)C(=O)C1=O,i,0.63
CC(=O)c1cccc(NC(=O)CSC(=O)c2ccccc2)c1,i,-1.5
CNS(=O)(=O)c1cc(-c2nnc(N3CCOCC3)c3ccccc23)ccc1C,i,2.2
COc1ccc(C(=O)N2CCOC2CNC(=O)C(=O)NCCc2ccccc2OC)cc1 (configuration not stated),i,-1.2
N#C/C(=C/c1ccc(Br)o1)C(N)=O,i,-1.6
Cc1cc(NC(=O)CSc2nc(N)c(NC(=O)c3ccc(F)c(F)c3)c(=O)[nH]2)no1,i,0.09
CN(c1ccccc1)S(=O)(=O)c1cccc(NC(=O)c2ccc3ncsc3c2)c1,-7.4*,-2.6*
Cc1[nH]c2ccccc2c1C(=O)CSc1nc2ccccc2c(=O)n1-c1ccccc1F,i,-0.4
COc1cccc(N2CCN(S(=O)(=O)c3cc4c(cc3C)N(C)CCO4)CC2)c1,i,1.5
Cc1cc(C)cc(NC(=O)c2ccc(NC3=NC4CS(=O)(=O)CC4S3)cc2)c1 (configuration not stated),i,0.43
CCOC(=O)C1(Cc2cccc(OC)c2)CCCN(C(=O)c2cc(C)on2)C1 (configuration not stated),i,-0.84
Cc1ccc(NC(=O)c2cc(C)nc3ccccc23)c(Br)c1,-6.7*,0.06*

Quoted from the listing:
KCNQ2 block baseline, CCOC(=O)C1(Cc2cccc(OC)c2)CCCN(C(=O)c2cc(C)on2)C1 (configuration not stated) reads -0.84
KCNQ2 block baseline, Cc1[nH]c2ccccc2c1C(=O)CSc1nc2ccccc2c(=O)n1-c1ccccc1F reads -0.4
KCNQ2 block baseline, Cc1ccc(NC(=O)c2cc(C)nc3ccccc23)c(Br)c1 reads 0.06*
KCNQ2 block baseline, CN(c1ccccc1)S(=O)(=O)c1cccc(NC(=O)c2ccc3ncsc3c2)c1 reads -2.6*
KCNQ2 block baseline, COc1ccc(C(=O)N2CCOC2CNC(=O)C(=O)NCCc2ccccc2OC)cc1 (configuration not stated) reads -1.2

Continuation.
mol,KCNQ2 block,KCNQ2 block baseline
NC(=O)NC1CCCc2c1[nH]c1ccc(Cl)cc21 (configuration not stated),i,0.39
Cc1ccc(-c2nnc(CSc3nnc(COc4ccccc4)n3-c3ccc(C)cc3)o2)cc1,i,2.1
CCCCN(C)C/C(O)=C(\C#N)c1nc(-c2ccccc2)cs1,i,0.87
Cc1cccc(-c2cc3nc4c(c(NCc5ccco5)n3n2)CCCC4)c1,i,2
COc1cccc2c1-c1c(C(=O)O)cccc1C2=O,i,0.29
Cc1ccc(C)c(NC(=O)CSc2nc3c(oc4ccccc43)c(=O)n2-c2ccccc2)c1,i,0.93
CCOC(=O)Cc1csc(NC(=O)CSc2nnc3ccccn23)n1,i,0.2
COc1ccc(-n2c(=O)c3c(C)c(C)sc3n(Cc3cccc(F)c3)c2=O)c(OC)c1,i,0.32
CC1(C)Cc2c(sc(/N=C/N3CCOCC3)c2C#N)C(C)(C)N1,i,2.3
CCC(Cc1ccccc1)NC(=O)Cn1ncc2ccsc2c1=O (configuration not stated),i,2.9
Cc1ccc(-n2nc3ccc(NC(=O)c4ccco4)cc3n2)cc1,i,-0.91
COc1ccccc1CN(C)C(=O)c1cc(-c2cccs2)nc2ccccc12,i,-1
COc1ccccc1CC(=O)NCC(c1ccco1)N1CCCCC1 (configuration not stated),i,-0.66
CCc1ccc(-c2cc3c(=O)n(CC(=O)N4CCCC4)nc(C)n3n2)cc1,i,0.62

An excerpt from above in order of number of heavy atoms, rising:
mol,KCNQ2 block,KCNQ2 block baseline
Cc1ccc(-n2nc3ccc(NC(=O)c4ccco4)cc3n2)cc1,i,-0.91
CCc1ccc(-c2cc3c(=O)n(CC(=O)N4CCCC4)nc(C)n3n2)cc1,i,0.62
COc1ccccc1CN(C)C(=O)c1cc(-c2cccs2)nc2ccccc12,i,-1
